Mtb hypoxia inh: PubChem AID 1159583; M. tuberculosis hypoxia-regulated fluorescent reporter, fluorescence; fluorescence inhibition, % (concentration not given with the values); 0.1% of 300,000 active;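 active = 35 to 45% if threefold the growth effect, above 45% if 1.5-fold the growth effect; inactive = the rest, general growth blockers included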;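 note: wells of about 50 µL received 100 nL stock; 0% = vehicle wells and 100% = reference inhibitor wells; whole bacteria with a GFP reporter of the hypoxia response; strong numbers were not always called active; many hits fall short of the cut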
PrP UTR inh: inhibition of PrP 5' UTR reporter expression | cell-based PrP 5' UTR mRNA reporter, plate reader | inhibition, % (no concentration beside the values) | 0.35% of 340,000 active;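 active = every replicate at 50% or more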;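 note: 0 = median of the neutral control wells; tested in H4 reporter cells; numbers are from one replicate; inactives centre near -14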
Autofluor counter: counter-screen for toxin protease inhibitors: compound fluorescence; fluorescence intensity (concentration not given with the values); compound autofluorescence counterscreen, microsphere flow cytometry; stronger effect = higher value; AID 624483; 3.1% of 360,000 active;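 active = at least 3 SD above the mean of all compounds, about 16000 in these data; inconclusive = too few beads counted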;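 note: 100 nL of 1 mM stock went into each well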
BJeLR lethal: MLPCN primary cell-based screen for lethality selective to Ras in HRASV12 cells | BJeLR (HRASV12) viability, CellTiter-Glo ATP luminescence, 48 h; reference of the scale not given here | inhibition, % (test concentration not listed) | 0.17% of 300,000 active | AID 1554, 2009;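 active = replicate mean above 50%; inconclusive = above 50% but judged a plate artefact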;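 note: 50 nL library stock added to about 25 µL; numbers are from one replicate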
Sa RN4220 lethal: growth inhibition of S. aureus RN4220, primary screen, OD600. 16 h. inhibition, % (no concentration beside the values). 0.33% of 330,000 active. AID 1259311, 2017;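 active = z-score of -3 or lower and OD600 up to 0.18 on both plates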;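 note: plate controls were untreated cells for no effect and reference antibiotic for full effect; stock transfer was 100 nL into about 80 µL; one replicate is shown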
ugtP null kill: growth inhibition of ugtP-null S. aureus, primary screen, RN4220 ugtP deletion, OD600; 0.54% of 330,000 active; 16 h; some inactives read as strong as hits; growth inhibition, % (test concentration not listed); AID 1259309, 2017;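 active = z-score under -3 and OD600 up to 0.15 on both plates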;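 note: plate controls were untreated wells for no effect and antibiotic for full effect; wells of about 80 µL received 100 nL stock; the first replicate is given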
Mtb hypoxia inh growth: further read-out of Mtb hypoxia inh, marked with its call; growth inhibition, %; measured here: M. tuberculosis growth (absorbance);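 0% = vehicle and 100% = reference antibiotic; read after six days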
* marks the source's active call; other numbers are inactive results; ? = inconclusive; / = no result given. Compounds were not picked by outcome; 4% or so of the library scored in one or more.

Molecule	Mtb hypoxia inh	Mtb hypoxia inh growth	PrP UTR inh	Autofluor counter	BJeLR lethal	Sa RN4220 lethal	ugtP null kill
Cc1cc(C)c2nc(N3CCCC(C(=O)NCCN4CCOCC4)C3)sc2c1 (stereo not given)	-5	7	-27	9399	-4	2.4	-1
CC(C)=CCN1CCN(CCCc2ccccc2)CC1CCO (stereo not given)	-4	0	-20	3236	-6	3.5	13
CCOC(=O)c1ccc(-c2c(-c3ccc(OC)cc3)oc(=O)c3cc(OC)c(OC)cc23)cc1F	1	22	-11	3820	/	0.4	6
Cc1ccc(NC(=O)CSc2nnc(CNC(=O)c3ccco3)o2)cc1Cl	7	6	3	5556	3	2.1	3
CN1N=C(C(=O)N2CCc3c([nH]c4ccccc34)C2c2ccccc2Cl)CCC1=O (stereo not given)	-10	9	-43	3976	5	4.7	2
CCCCCCN1C2=NCCN2c2ccccc21	22	12	-10	10014	-1	-0.7	4
Cc1n[nH]c(C)c1Cc1c(F)cccc1Cl	4	9	-31	3648	-1	5.3	-8
COc1ccc(C(=O)NC2CCSC2=O)cc1 (stereo not given)	6	12	-2	10092	-2	2.0	-1
CCOc1cc(/C=C2/C(=N)N3N=C(C)SC3=NC2=O)ccc1OS(=O)(=O)c1ccc(C)cc1	0	-7	-28	3865	0	1.8	4
Cc1cc[n+](CC(=O)Nc2ccccc2)cc1	7	5	-15	3476	-8	3.7	10
O=C(NN=Cc1cccc(C(F)(F)F)c1)c1ccccc1O	6	-1	/	/	/	6.9	5
CCCC1CCc2c(sc(N)c2C(N)=O)C1 (stereo not given)	/	/	-12	2612	7	0.6	-7
c1ccc(CC2CCN(C(c3cccs3)c3nnnn3C3CCCC3)CC2)cc1 (stereo not given)	16	6	-13	10804	0	3.3	15
CCOC(=O)c1sc(N)c(C(=O)OCC)c1COC(=O)C1CC(=O)N(Cc2ccco2)C1 (stereo not given)	/	/	-9	?	-2	0.7	-3
OCC[C@@H]1C[C@H](O)[C@@H](O)[C@@]2(CCCO2)O1	/	/	-10	4292	3	/	/
Cc1ccc(C)c(OCC(=O)Nc2ccccc2C(=O)N2CCOCC2)c1	/	/	-1	5639	-11	/	/
COc1cc(C(=O)O[C@H]2C/C(C)=C/CC[C@]3(C)O[C@@H]3C(O)C2C(C)C)cc(OC)c1OC (stereo not given in full)	/	/	-15	4026	-10	/	/
COc1ccc(/C=N\NC(=O)c2ccccc2OC)cc1COc1c(F)c(F)c(F)c(F)c1F	/	/	-16	4500	7	/	/
CC(=O)c1cc2c(cc1NS(=O)(=O)c1ccc(C)cc1)OCO2	6	0	-8	20111*	4	1.9	-3
CC(C)CN(C(=O)CN1CCN(c2ccccc2O)CC1)c1c(N)n(CC(C)C)c(=O)[nH]c1=O	8	8	2	2395	2	2.7	8
O=C(CN1C2CCC1CC(NC(=O)Nc1ccccc1)C2)NCc1ccco1 (stereo not given)	7	2	-25	7296	4	2.1	5
Cc1ccc(NNC(=O)Nc2ccc(Cl)cc2)nn1	11	2	-8	4084	-17	1.2	4
N#Cc1ccc(CN2CCN(C(=O)c3cc(Cl)c4c(c3)OCCO4)CC2)cc1	13	4	-15	7542	/	4.3	2
C=CCNS(=O)(=O)c1ccc(C(=O)OCc2cc(=O)oc3cc(OC)ccc23)cc1	21	8	-7	6999	-2	3.9	-21
CCOC(=O)CNC(=O)Nc1cccc(Cl)c1C	5	-16	-10	4366	7	0.0	-2
CC(C)C[C@@H](CO)N1CCNCCC1=O	/	/	-3	4222	11	/	/
O=S(=O)(c1cc(F)cc(F)c1)N1CCN(c2ncccn2)CC1	15	13	-27	3018	-4	-3.8	-2
CCOC(=O)N/N=C\c1ccc(OC(=O)c2ccc3c(c2)OCO3)cc1	/	/	-30	4513	5	/	/
COc1ccc(CCC(=O)Nc2cc3c4c(c2)CC(=O)N4CCC3)cc1	-2	5	-11	4973	-3	1.3	1
O=c1c2c(-c3cccc([N+](=O)[O-])c3)ccnc2[nH]n1-c1ccccc1	5	0	-5	2796	-1	-1.2	16
COc1ccc(C(=O)NC(=S)Nc2cccc(Cl)c2N2CCOCC2)cc1[N+](=O)[O-]	1	3	-13	9538	6	2.0	2
CC1CCCC(C)N1C(=O)COC(=O)c1cc([N+](=O)[O-])ccc1N1CCOCC1 (stereo not given)	/	/	-1	5566	-1	/	/
C=CCNC(=O)COC(=O)COc1ccc(Cl)cc1	17	5	-16	3430	8	2.5	3
Cc1ccccc1NC(=S)N(CCN1CCCCC1)Cc1ccco1	-5	4	-34	4654	-8	13	5
CC(C)C(C(=O)NCC1CCCO1)N(C(=O)CNS(=O)(=O)c1ccc(F)cc1)C1CCCCC1 (stereo not given)	-8	2	2	5761	-2	1.2	1
O=C(NCc1ccccc1Cl)C1CCC(=O)N(CCCN2CCCC2=O)C1 (stereo not given)	-1	-5	-54	6284	1	0.3	-1
CCN=C(NCC)SC1CC(=O)N(c2cccc(OCC)c2)C1=O (stereo not given)	20	-15	-8	2617	6	-13	-10
COc1ccc(NC(=O)C2CC(=O)N(Cc3ccc(C)cc3)C2)cc1S(=O)(=O)N1CCCCC1 (stereo not given)	4	0	4	9395	2	1.1	3
Cc1nc(-c2ccc(Cl)cc2)sc1C1(C)CC(c2ccncc2)=NO1 (stereo not given)	14	3	3	3483	4	3.4	15
CC1(NC(=O)c2cc(-c3cccs3)nn2-c2ccccc2)CCS(=O)(=O)C1 (stereo not given)	1	-15	-19	6133	-10	-0.2	6
CCCCSc1n[nH]c(N)n1	3	4	-17	2448	4	2.4	3
Cc1noc(C)c1S(=O)(=O)N(CC(=O)NCc1ccc2c(c1)OCO2)c1ccc(C(C)C)cc1	/	/	-4	6163	7	-6.3	8
CC1=NN(C(=O)Cc2ccccc2)C(O)(c2ccccc2)C1 (stereo not given)	2	6	1	3333	2	4.4	2
COc1ccc(N(CC(=O)Nc2ccc(F)c(Cl)c2)S(=O)(=O)c2c(C)noc2C)cc1	3	3	-4	16336*	-1	-3.5	-32
CN(C)CCCNC(=O)C(=O)NCC(c1cccs1)S(=O)(=O)c1ccc(F)cc1 (stereo not given)	-8	8	6	?	12	-0.8	-3
O=C(CCl)c1cc2c3c(c1)CC(=O)N3CCC2	/	/	-29	5384	6	/	/
C=CCC[C@H](Cc1ccc(F)cc1)C(=O)OC[C@@H](Cc1c[nH]c2ccccc12)NC(=O)[C@H](CC=C)CC(=O)N[C@H](CO)Cc1ccccc1	2	5	0	3107	/	-3.6	-13
CCOC(=O)c1c(C)c(C(=O)NCCCOC)c(C)n1C	-3	-2	-3	20527*	1	2.5	1
O=C(NNc1ccccc1Cl)C(O)(c1cccc(C(F)(F)F)c1)c1cccc(C(F)(F)F)c1	-3	4	-2	2395	0	37	7
COc1ccccc1NC(=O)N1CCCC1C(=O)Nc1ccc(NC(C)=O)cc1 (stereo not given)	14	7	-2	9025	-16	6.3	6
CCCC(C)NC(=O)/C=C/c1cccc([N+](=O)[O-])c1 (stereo not given)	/	/	-32	2949	7	1.4	2
CCC(Sc1nc2cc(OC)c(OC)cc2c(=O)n1CCc1ccc(S(N)(=O)=O)cc1)C(=O)NCCOC (stereo not given)	6	-1	-6	4501	2	1.2	10
C/C(CC(=O)Nc1cccc(C(F)(F)F)c1)=N\NC(=O)c1cnccn1	/	/	-5	3888	-8	/	/
NS(=O)(=O)c1ccc(CCNC(=O)c2ccc(Cl)nc2)cc1	-6	-18	-9	3911	-3	-1.7	-4
O=C(CCn1c2c(c3ccccc31)CCCC2)NNC(=O)c1ccccc1Cl	7	2	-15	2575	-5	1.6	6
O=C(CN1CCOCC1)Nc1ccccc1NC(=O)C1CCN(c2ncccn2)CC1	2	7	-23	9940	3	0.9	3
Cc1cccc(C)c1NC(=O)Nc1ccc2c(c1)OCO2	9	0	-23	2789	3	5.5	1
COC(=O)[C@H](C)NC(=O)Nc1ccccc1C(F)(F)F	7	3	-27	10635	0	3.3	5
Cc1noc(NS(=O)(=O)c2ccc(N/C=C\C(=O)c3cccc4ccccc34)cc2)c1C	3	7	-16	3533	-6	27	4
CCc1cccc(NC(=O)NC(=O)Cn2nnc(C(=O)OC)c2C(=O)OC)c1	2	8	-19	10112	-4	3.4	7
Cc1cccc(-n2cnc3sc(C)c(C)c3c2=O)c1	5	5	-13	5343	7	2.2	0
O=C(Nc1nccs1)c1cc(-c2ccncc2)nc2ccccc12	-4	-4	-11	4145	-1	3.3	-2
Cc1cccc(NC(=S)N(Cc2ccc(Cl)cc2)Cc2ccc(C(=O)O)cc2)c1	15	3	-15	3315	-1	20	7

Some of these compounds in order of formula weight, descending.
Molecule	Mtb hypoxia inh	Mtb hypoxia inh growth	PrP UTR inh	Autofluor counter	BJeLR lethal	Sa RN4220 lethal	ugtP null kill
C=CCC[C@H](Cc1ccc(F)cc1)C(=O)OC[C@@H](Cc1c[nH]c2ccccc12)NC(=O)[C@H](CC=C)CC(=O)N[C@H](CO)Cc1ccccc1	2	5	0	3107	/	-3.6	-13
CCC(Sc1nc2cc(OC)c(OC)cc2c(=O)n1CCc1ccc(S(N)(=O)=O)cc1)C(=O)NCCOC (stereo not given)	6	-1	-6	4501	2	1.2	10
O=C(NNc1ccccc1Cl)C(O)(c1cccc(C(F)(F)F)c1)c1cccc(C(F)(F)F)c1	-3	4	-2	2395	0	37	7
Cc1noc(C)c1S(=O)(=O)N(CC(=O)NCc1ccc2c(c1)OCO2)c1ccc(C(C)C)cc1	/	/	-4	6163	7	-6.3	8
COc1ccc(N(CC(=O)Nc2ccc(F)c(Cl)c2)S(=O)(=O)c2c(C)noc2C)cc1	3	3	-4	16336*	-1	-3.5	-32
Cc1noc(NS(=O)(=O)c2ccc(N/C=C\C(=O)c3cccc4ccccc34)cc2)c1C	3	7	-16	3533	-6	27	4
COc1ccccc1NC(=O)N1CCCC1C(=O)Nc1ccc(NC(C)=O)cc1 (stereo not given)	14	7	-2	9025	-16	6.3	6
CCc1cccc(NC(=O)NC(=O)Cn2nnc(C(=O)OC)c2C(=O)OC)c1	2	8	-19	10112	-4	3.4	7
CCOC(=O)c1c(C)c(C(=O)NCCCOC)c(C)n1C	-3	-2	-3	20527*	1	2.5	1
Cc1cccc(-n2cnc3sc(C)c(C)c3c2=O)c1	5	5	-13	5343	7	2.2	0
O=C(CCl)c1cc2c3c(c1)CC(=O)N3CCC2	/	/	-29	5384	6	/	/
